Screening data (PubChem BioAssay)
Beta cell apopt – inhibitors of cytokine-induced beta cell apoptosis, primary screen, luminescence. AID 435005, 2010. INS-1E cytokine-induced death, ATP luminescence, 48 h; percent of positive-control rescue, neutral wells zero. protection from apoptosis, % (no concentration beside the values). 0.8% of 300,000 active;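 active = all replicates at 75% or more, or half of them and the mean; inconclusive = half reach 75% but not the mean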;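 note: 0% = cytokine-treated negative control wells and 100% = positive control rescue; higher means more ATP so stronger rescue from cytokine killing; wells of about 40 µL received 100 nL stock; the first replicate is given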
LANA-H2B inh – blockers of LANA interaction with H2A/H2B – biochemical, FP readout, HTS, primary screen. 0.6% of 320,000 active. inhibition, % (no concentration beside the values). AID 2629, 2010. cell-free LANA-H2A/H2B peptide, fluorescence polarization; in the data active = inhibition mostly above about 10%, no sharp cut-off; inactive = mostly below about 6.7%;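 note: stock transfer was 7.5 nL into about 10 µL; 0% = median of vehicle wells and 100% = median of positive control wells; one replicate is shown; the record names a cut of 25% in any replicate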
Target sequence (Q9QR71 whole entry, looked up): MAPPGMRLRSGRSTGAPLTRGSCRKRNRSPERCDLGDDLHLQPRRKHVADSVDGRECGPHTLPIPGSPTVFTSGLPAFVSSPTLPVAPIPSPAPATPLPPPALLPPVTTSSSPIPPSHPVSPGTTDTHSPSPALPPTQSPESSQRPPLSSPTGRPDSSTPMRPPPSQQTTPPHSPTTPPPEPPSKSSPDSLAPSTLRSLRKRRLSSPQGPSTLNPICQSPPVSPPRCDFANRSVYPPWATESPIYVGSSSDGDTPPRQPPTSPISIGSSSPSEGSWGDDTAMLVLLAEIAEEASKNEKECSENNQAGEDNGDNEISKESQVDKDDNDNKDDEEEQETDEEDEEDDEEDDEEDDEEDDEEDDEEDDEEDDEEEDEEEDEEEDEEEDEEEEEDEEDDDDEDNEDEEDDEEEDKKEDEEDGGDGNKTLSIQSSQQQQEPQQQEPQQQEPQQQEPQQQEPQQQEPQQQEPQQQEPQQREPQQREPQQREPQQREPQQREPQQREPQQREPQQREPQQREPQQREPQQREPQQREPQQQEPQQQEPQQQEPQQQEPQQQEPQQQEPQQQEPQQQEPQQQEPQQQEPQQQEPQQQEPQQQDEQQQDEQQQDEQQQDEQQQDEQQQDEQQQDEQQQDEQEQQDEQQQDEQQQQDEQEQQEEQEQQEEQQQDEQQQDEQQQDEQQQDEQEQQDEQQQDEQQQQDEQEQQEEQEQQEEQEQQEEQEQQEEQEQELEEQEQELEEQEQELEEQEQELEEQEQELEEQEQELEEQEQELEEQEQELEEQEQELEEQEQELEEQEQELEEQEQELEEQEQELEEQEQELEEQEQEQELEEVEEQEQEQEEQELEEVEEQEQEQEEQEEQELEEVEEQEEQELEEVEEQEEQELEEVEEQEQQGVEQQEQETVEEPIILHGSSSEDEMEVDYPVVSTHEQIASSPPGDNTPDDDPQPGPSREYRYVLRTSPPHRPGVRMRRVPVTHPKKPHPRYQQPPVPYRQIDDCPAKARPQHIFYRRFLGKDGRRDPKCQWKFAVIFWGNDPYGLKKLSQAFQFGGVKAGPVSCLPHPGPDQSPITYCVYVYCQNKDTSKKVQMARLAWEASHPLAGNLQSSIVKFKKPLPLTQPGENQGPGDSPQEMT
Ecoli rRNA inh – reduced GFP signal of wild-type E. coli, primary screen, bacterial rRNA inhibitor project, GFP/RFP fluorescence, OD600, single point | GFP signal change (wild-type ribosome), % (no concentration beside the values) | E. coli WT GFP vs humanized-ribosome RFP mutants, 24 h; stronger effect = lower value; DMSO median 0, no signal -100 | 1.6% of 350,000 active | AID 720706, 2013;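 active = significant combined selectivity score with lowered wild-type GFP, culture density cut under 30%, mutant RFP and density less affected; inactive = any of these conditions unmet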; note: one replicate is shown; some compounds called inactive have numbers as strong as hits
T cruzi repl – inhibitors of intracellular T. cruzi growth, primary screen, luminescence, NIH3T3 host cells. AID 1885, 2009. inhibition, % (concentration not given with the values). T. cruzi beta-gal in NIH3T3, 90 h. 1.4% of 300,000 active;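 active = mean inhibition across valid replicates above about 55%, limit read from the data; inconclusive = mean below that limit but half or more replicates reach it; inactive = mean below it, under half of replicates reach it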;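 note: signal also drops with host cell toxicity which is not excluded here; 0% = plate median of DMSO wells and 100% = zero luminescence signal; higher percent means less beta-gal luminescence so fewer parasites; stock transfer was 50 nL into about 50 µL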
Bfl-1 A1 inh – caspase 3/7 activation in MEF A1-2A-BIM cells, primary screen, A1 inhibitor project, cell-based, luminescence, HTS. Caspase-Glo 3/7 luminescence, 3 h; percent of clofoctol response, vehicle zero. caspase activation, % (no concentration beside the values). 0.066% of 330,000 active;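 active = over half of replicate activation scores above 10%, or exactly half above 10 with the replicate mean above 10; inconclusive = replicate mean below 10 yet half the replicates above 10; inactive = over half of replicates below 10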;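 note: wells of about 30 µL received 50 nL stock; many hits fall short of the cut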
Beta2AR agonist – beta2AR agonists driving receptor internalization, primary screen, cell-based, FAP fluorogen, flow cytometry; AID 504454, 2011; Beta-2 adrenergic receptor (Homo sapiens), P07550; response, % (no concentration beside the values); 0.43% of 340,000 active; Am2.2-beta2AR cells; reference of the scale not given here;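 active = response above a set limit, near 3 SD of response in nonfluorescent compounds, cut at about 42% in these data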;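 note: stock transfer was 100 nL into about 11 µL; a reference agonist was the positive control; negative values mostly stem from fluorescent compounds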
Calb FLC – C. albicans growth inhibition with fluconazole, primary screen, CaCi-2 strain, Alamar Blue fluorescence; C. albicans CaCi-2 (fluconazole-resistant clinical isolate) + fluconazole, 48 h; growth inhibition, % (test concentration not listed); 0.57% of 300,000 active; AID 1979, 2009;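 active = most replicates above 75%; inconclusive = exactly half above 75%; inactive = most below 75%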;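 note: all wells also contain fluconazole at 8 µg/ml as a sub-toxic cotreatment; 0% = median of DMSO wells and 100% = median of geldanamycin control wells; wells of about 8 µL received 7.5 nL stock; the first replicate is given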
ALR H2O2 inh – inhibitors of human ALR sulfhydryl oxidase, primary screen, biochemical, H2O2 detection, HRP-luminol luminescence, single point. inhibition, % (no concentration beside the values). 3.8% of 290,000 active. purified ALR, DTT oxidation. AID 485317, 2010. FAD-linked sulfhydryl oxidase ALR (Homo sapiens), P55789;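 active = mean and each replicate at 75% or more; inconclusive = only one of the two met; inactive = neither met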;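 note: stock transfer was 7.5 nL into about 7.5 µL; 0% = neutral wells and 100% = wells with inactivated enzyme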
Ecoli rRNA inh OD600 – also measured in Ecoli rRNA inh; calls as there; OD600 change, %; measured here: OD600 growth;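 optical density of the mix in the first replicate; 0 = DMSO median and -100 = no signal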
Ecoli rRNA inh RFP – second read-out of Ecoli rRNA inh, no call of its own (marks repeat the call); RFP signal change, %; measured here: RFP humanized mutant strains;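 first replicate; 0 = DMSO median and -100 = no signal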
Numbers without * were called inactive; ? = inconclusive; . = no result given. A portion of the library; rates above refer to the full screens.

SMILES	Beta cell apopt	LANA-H2B inh	Ecoli rRNA inh	Ecoli rRNA inh OD600	Ecoli rRNA inh RFP	T cruzi repl	Bfl-1 A1 inh	Beta2AR agonist	Calb FLC	ALR H2O2 inh
Cc1c(C)c2ccc(OS(C)(=O)=O)c(C)c2oc1=O	-2	-2.9	.	.	.	-7	0.5	-1	-4	4
O=c1[nH]cnc2c1ncn2[C@@H]1C[C@@H](O)[C@H](CO)O1	-7	-1.5	4	10	-0.4	-11	0.3	-1	9	-5
O=C(Nc1nncs1)C1c2ccccc2Oc2ccccc21	1	-0.8	.	.	.	7	-0.6	5	8	.
CCCn1ccnc1SCC(=O)Nc1c(C)n(C)n(-c2ccccc2)c1=O	-4	-2.2	7	18	-1.3	.	-0.2	-6	.	.
Cc1ccc2nc(N3CCN(C=O)CC3)nc(-c3ccccc3)c2c1	1	0.3	-13	-19	6.1	15	0.0	-2	-6	.
O=c1cc(N2CCc3ccccc32)[nH]c(=O)n1Cc1ccc(F)cc1	-8	3.7	-6	5	3.8	15	-0.1	-5	57	1
CN(C(=O)CSc1nc2ccccc2c(=O)n1-c1ccccc1F)C1CCS(=O)(=O)C1 (configuration not stated)	-2	2.8	0	-11	-4.9	.	0.1	-4	.	-7
COc1ccccc1Nc1ncccc1[N+](=O)[O-]	0	3.3	0	-1	-2.1	0	1.0	2	-3	.
Cc1cc(-c2ccc(C(C)C)c(S(=O)(=O)Nc3cc(C)on3)c2)on1	-1	-1.5	-1	-7	-3.5	-16	0.5	7	8	-1
CCOC(=O)C1=C(C)NC(C)=C(C(=O)OCC)C1c1ccco1	-6	-0.8	-19	-29	3.7	5	0.1	-2	5	.
CCN(CC(=O)Nc1c(F)cccc1F)C(=O)c1cc(S(=O)(=O)N2CCOCC2)ccc1N1CCCC1	17	-0.7	7	8	0.1	4	0.8	3	-4	0
C=CCc1cccc(C2Nc3ccccc3C(=O)N2O)c1O (configuration not stated)	4	3.7	.	.	.	-7	-0.4	-3	-2	-5
CSc1cccc(NC(=O)CN(C)S(=O)(=O)c2cnc[nH]2)c1	-7	-2.6	6	2	-2.5	2	1.4	15	8	-8
COc1cccc(C(=O)N2CCN(Cc3ccccc3Br)CC2)c1	.	-2.2	-18	-21	-4.2	-5	0.7	2	8	0
O=C(CSc1ccc(-c2ccc(F)cc2)nn1)NCc1ccco1	-2	-1.0	.	.	.	-11	-0.6	-2	-2	-5
Cc1nn(-c2ccccc2)c(C)c1C=O	2	-1.0	16	-1	3.8	-5	0.1	-2	10	0
Cc1cc(C)cc(N(C(=O)Cn2nnc(-c3ccccc3)n2)C(C(=O)NC2CCCCC2)c2ccccn2)c1 (configuration not stated)	6	-6.2	.	.	.	18	0.1	0	6	-24
Cc1ccc(OCC(=O)c2ccc3c(c2)CCCC3)cc1C	-8	-3.8	.	.	.	1	-0.6	5	-5	-5
CSc1nc2c(c(C(F)(F)F)n1)CC(C)CC2 (configuration not stated)	4	-2.5	.	.	.	-11	0.0	13	13	-1
COc1ccc(C(CNC(=O)c2cc3c(s2)CCCC3)N2CCOCC2)cc1 (configuration not stated)	-7	-1.4	-7	-11	0.9	-8	-0.1	1	1	-2
CC1(c2nnc(-c3ccncc3)o2)CC(c2ccc(Cl)cc2)=NO1 (configuration not stated)	7	-0.8	0	-2	-8.7	5	2.8	-7	-13	-11
O=C(NCc1ccncc1)c1ccc(NS(=O)(=O)c2ccc(F)cc2)cc1	-5	3.3	13	4	1.6	.	-1.1	-6	.	-1
CCOC(=O)c1c(NC(=O)CN2CCCCC2)sc2c1CCCC2O (configuration not stated)	-1	1.9	-1	-3	-0.9	29	-0.2	-2	7	-7
COc1cc2c(cc1OC)C(C)N(C(=O)Nc1ccccc1)CC2 (configuration not stated)	.	-5.4	-4	-6	1.1	2	0.5	-12	-2	.
O=C(OCc1nnc(-c2ccc(Br)cc2)o1)c1cncc(Br)c1	0	2.0	-1	2	2.8	-1	-0.3	1	5	16

The list continues.
SMILES	Beta cell apopt	LANA-H2B inh	Ecoli rRNA inh	Ecoli rRNA inh OD600	Ecoli rRNA inh RFP	T cruzi repl	Bfl-1 A1 inh	Beta2AR agonist	Calb FLC	ALR H2O2 inh
CCOC(=O)CC1C(=O)NCCN1C(=O)c1sc2ccccc2c1Cl (configuration not stated)	-5	-0.1	1	0	-2.4	-13	-0.8	-2	?	.
CC[N+](CC)(CC)CCCCOc1ccc2c(c1)C(=O)c1cc(OCCCC[N+](CC)(CC)CC)ccc1-2	16	0.0	-54*	-33*	-20*	10	0.6	5	4	-1
CCC(c1nnc(SCC(=O)NNC(=O)c2ccccc2)n1Cc1ccccc1)N(C)C (configuration not stated)	-4	-3.1	7	8	-1.0	3	0.2	-7	2	-1
O=S(=O)(c1cccc(Cl)c1)N1CCCC1	4	-2.1	-12	-5	5.0	3	1.7	0	20	-2
CC(=O)Nc1ccc(S(=O)(=O)N2CCNC(=O)C2)cc1	-3	1.4	5	11	-3.7	.	-2.3	5	.	-3
CCC(=O)Oc1ccc(NC(=O)c2ccco2)cc1	-5	-0.8	6	8	-2.8	-11	-3.0	5	6	-13
Cc1ccc(C(C)C)c(OCCCN2CC(C)OC(C)C2)c1 (configuration not stated)	-1	-0.7	4	-4	-0.5	0	0.1	18	-3	3
CCOc1ccccc1NC(=O)NCc1ccco1	0	0.1	6	-5	-7.1	-3	-1.2	0	-12	-4
O=C(N/N=C1\CCS(=O)(=O)c2ccc(F)cc21)c1ccc([N+](=O)[O-])cc1	-1	-8.2	8	7	-2.8	-8	-0.3	-13	-6	-4
CCCCc1cc(=O)oc2c(C)c(OCc3nn[nH]n3)ccc12	0	1.8	-13	-2	0.9	-8	1.0	1	8	50
CCOC(=O)c1ccc(NC(=O)C(=O)NCCc2ccc(OC)cc2)cc1	-7	1.9	12	18	1.3	-31	-0.3	1	28	-7
CC(C)c1nc(Cl)c(C#N)c2c1CCC2	-8	-4.8	15	5	3.1	-7	0.8	2	2	-1
CCOc1ccccc1C1CC(=O)Nc2cc(C)c(C)cc21 (configuration not stated)	8	0.7	8	8	-0.7	9	0.5	0	-4	-12
CCOC(=O)C(Sc1ncc(C#N)c(N)n1)C(C)C (configuration not stated)	-8	-4.2	.	.	.	-16	0.4	13	10	-10
CCN(c1ccccc1)S(=O)(=O)c1ccc(OC)c(NC(=O)CNCC(C)O)c1 (configuration not stated)	-5	-3.1	.	.	.	3	-1.0	-4	-3	-3
COc1ccc(C(=O)NC2CCN(CC(=O)NCc3ccccc3F)CC2)cc1	0	0.0	0	1	-2.1	-5	-0.2	-4	33	3
COc1cccc(Nc2nc3ccc(C(=O)c4ccccc4)cc3n3cnnc23)c1	-2	-2.5	12	5	-5.1	-11	-0.2	5	2	.
CC(C)n1ncc2c(C(=O)N3CCN(c4ccc(F)cc4)CC3)cc(-c3ccccc3)nc21	1	-5.6	5	-16	-1.7	.	-0.3	0	.	-2
Cc1csc(SCC(=O)Nc2nncs2)n1	2	-1.1	10	9	-0.2	1	-0.4	-10	1	5
Nc1ccc2nc(-c3cccc(-c4nc5ccc(N)cc5[nH]4)c3)[nH]c2c1	2	0.6	16	20	-2.5	-6	0.3	15	11	99*
O=C(CCN1C(=O)C2CC=C(Cl)CC2C1=O)Nc1ccccc1O (configuration not stated)	-3	-5.3	.	.	.	-11	1.8	-2	1	44
O=c1[nH]n2c(=O)c3c([nH]c2c1N=Nc1cccc(Cl)c1)CCC3	0	.	.	.	.	1	-0.1	4	-13	35
CN(Cc1ccccc1)S(=O)(=O)c1ccc(OCC(=O)NCc2ccccn2)cc1	-1	4.5	-6	-10	-0.3	7	-0.4	-4	-6	-1
O=C(NC1CCCCC1)C(c1cccnc1)N(C(=O)c1ccc(Cl)nc1)C1CCCCC1 (configuration not stated)	-3	-6.4	3	-7	0.5	1	1.2	0	-1	.
CC(=O)N1c2ccc(S(=O)(=O)N3CCC(C(=O)N4CCN(c5ccccc5F)CC4)CC3)cc2CC1C (configuration not stated)	26	3.8	6	4	1.0	0	0.0	9	2	1
Cc1ccc(S(=O)(=O)CCC(=O)OCC(=O)c2ccc(C)c(C)c2)cc1	4	7.4	2	-3	0.8	-8	0.1	-7	-6	-2
CC(C)CN1C(=O)c2ccc(C(=O)Nc3ccc(O)cc3C(=O)O)cc2C1=O	.	0.9	8	13	-3.3	-10	-1.5	-1	-1	43

9 entries from above, reformatted:
SMILES,Beta cell apopt,LANA-H2B inh,Ecoli rRNA inh,Ecoli rRNA inh OD600,Ecoli rRNA inh RFP,T cruzi repl,Bfl-1 A1 inh,Beta2AR agonist,Calb FLC,ALR H2O2 inh
CCOc1ccccc1NC(=O)NCc1ccco1,0,0.1,6,-5,-7.1,-3,-1.2,0,-12,-4
O=C(N/N=C1\CCS(=O)(=O)c2ccc(F)cc21)c1ccc([N+](=O)[O-])cc1,-1,-8.2,8,7,-2.8,-8,-0.3,-13,-6,-4
CCCCc1cc(=O)oc2c(C)c(OCc3nn[nH]n3)ccc12,0,1.8,-13,-2,0.9,-8,1.0,1,8,50
CCOC(=O)c1ccc(NC(=O)C(=O)NCCc2ccc(OC)cc2)cc1,-7,1.9,12,18,1.3,-31,-0.3,1,28,-7
CC(C)c1nc(Cl)c(C#N)c2c1CCC2,-8,-4.8,15,5,3.1,-7,0.8,2,2,-1
CCOc1ccccc1C1CC(=O)Nc2cc(C)c(C)cc21 (configuration not stated),8,0.7,8,8,-0.7,9,0.5,0,-4,-12
CCOC(=O)C(Sc1ncc(C#N)c(N)n1)C(C)C (configuration not stated),-8,-4.2,.,.,.,-16,0.4,13,10,-10
CCN(c1ccccc1)S(=O)(=O)c1ccc(OC)c(NC(=O)CNCC(C)O)c1 (configuration not stated),-5,-3.1,.,.,.,3,-1.0,-4,-3,-3
COc1ccc(C(=O)NC2CCN(CC(=O)NCc3ccccc3F)CC2)cc1,0,0.0,0,1,-2.1,-5,-0.2,-4,33,3
